Screening results from PubChem.
ClpP mod: qHTS Assay for Activators of ClpP; ATP-dependent Clp protease proteolytic subunit (Bacillus subtilis (strain 168)), P80244; 340,000 tested, 1.9% active; AID 651965, 2013; Potency, µM (series often up to 57.5 µM), without a hit: at the highest dose activity change, negative = active; purified B. subtilis ClpP, FRET peptide cleavage, 20 min; active = well fitted falling curve with a large enough effect; inconclusive = small, poorly fitted or top-dose-only effect; inactive = no such curve, though single readings can be large or run the other way; note: potency is the fitted concentration of half-maximal effect; the source files actives as falling curves though it sought activators and does not explain the sign; nearly all actives have a fitted effect of over 65% in size; many hits overshoot -100%
Target sequence (P80244 whole entry, looked up): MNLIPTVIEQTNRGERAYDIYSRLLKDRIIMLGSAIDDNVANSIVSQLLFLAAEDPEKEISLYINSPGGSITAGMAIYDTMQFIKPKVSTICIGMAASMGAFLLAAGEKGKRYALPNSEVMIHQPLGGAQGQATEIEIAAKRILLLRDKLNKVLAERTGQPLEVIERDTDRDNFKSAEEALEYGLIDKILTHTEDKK
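Purified B. subtilis ClpP, 10 microg/mL final in Tris/HCl pH8 with KCl, BSA, glycerol and Tween-20, cleaved an Abz/nitrotyrosine-quenched decapeptide. Fluorescence (ex 320, em 430) was read at 0 and 20 min at room temperature. Delta was normalized to 5.8 microM ADEP and DMSO/no-enzyme controls.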
TRPML1 ag: agonists of human TRPML1 channel. TRPML1-expressing cells, Ca2+ dye fluorescence, FDSS; host cell line not named in the record; reference of the full effect not given here. 410,000 tested, 0.12% active. AID 624414. Q9GZU1. activation, % (no concentration beside the values); in the data active = activation above about 50%; inconclusive = about 30% to 50%; inactive = below about 30%; note: 0% is about no effect; the text of the record puts the active cut at 80%
Target sequence (Q9GZU1 whole entry, looked up): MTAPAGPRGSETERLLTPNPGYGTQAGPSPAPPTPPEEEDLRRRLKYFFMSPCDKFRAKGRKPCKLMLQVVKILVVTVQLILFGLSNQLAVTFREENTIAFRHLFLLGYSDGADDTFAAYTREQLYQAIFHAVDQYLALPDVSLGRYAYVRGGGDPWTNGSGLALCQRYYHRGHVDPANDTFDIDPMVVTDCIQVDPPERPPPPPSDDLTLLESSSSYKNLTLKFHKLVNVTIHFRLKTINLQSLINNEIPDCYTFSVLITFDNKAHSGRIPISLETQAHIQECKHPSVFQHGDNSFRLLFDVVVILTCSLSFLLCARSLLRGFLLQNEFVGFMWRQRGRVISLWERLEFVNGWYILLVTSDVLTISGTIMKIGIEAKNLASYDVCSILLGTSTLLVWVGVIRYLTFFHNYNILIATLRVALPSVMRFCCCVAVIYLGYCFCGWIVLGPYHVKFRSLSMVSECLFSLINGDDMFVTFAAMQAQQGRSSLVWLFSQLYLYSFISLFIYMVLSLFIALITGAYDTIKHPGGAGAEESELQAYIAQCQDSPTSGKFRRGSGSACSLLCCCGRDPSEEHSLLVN
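Kinetic FDSS Ca2+ read in Tet-induced TRPML1-DL cells (ABD Ca8 dye plus quencher, 45-90 min RT loading): baseline, then compound, then 110 s agonist window; EC80 agonist 54-4 at 4uM final added afterwards for a 110 s antagonist window.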
gsp ag: gsp mutant agonism; gsp mutant cells, cAMP HTRF, 30 min; control for the full effect not named in the record; Potency, µM (titrated, usually from 76.9 µM), for inactives: at the highest dose activation (cAMP increase), most hits filed as activators; AID 624287; 340,000 tested, 0.13% active; active = well fitted activation curve with a large enough effect; inconclusive = small, poorly fitted or top-dose-only effect, or another doubt; inactive = no such curve, though single readings can be large or run the other way; cell line not stated here;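 note: phosphodiesterase inhibitor Ro 20-1724 added with compounds to block cAMP breakdown; potency is the fitted concentration of half-maximal effect; nearly all actives have a fitted effect of over 60% in size; about a fifth of the inactives were tested at one dose only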
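Cells in DMEM/10% FBS with G418 were pretreated with compounds in DMSO plus […] (300 uM stock) for 30 min at 37C. cAMP was measured by HTRF (cAMP-d2 plus anti-cAMP antibody-K) after 30 min at room temperature.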
Menin MLL FP FL: displaces fluorescein MLL peptide from human menin; 290,000 tested, under 10 active; FP activity change, % at 61.4 µM; Fluorescence polarization, fluorescein-MLL peptide displacement from menin; inconclusive = falling polarisation curve, or a change in total fluorescence; inactive = total fluorescence flat and polarisation flat or rising; no compound was filed as active; the % refers to the polarisation; negative = inhibition;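 note: % of control where 0% means no effect; inhibitors lower the polarisation; unlabelled MLL peptide was the positive control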
TRPML1 blocker: blocks the human TRPML1 channel | Q9GZU1 | TRPML1-inducible cells, Ca2+ dye fluorescence, FDSS; stronger effect = lower value; inhibition of EC80 agonist-evoked calcium signal | activity change, negative = inhibition, % (concentration not given with the values) | 390,000 tested, 0.02% active | AID 624415; in the data active means activity change below about -50%; inconclusive means about -30% to -50%; inactive means above about -30%;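 note: stimulus is agonist 54-4 at its EC80 concentration; % is set by controls: 0 for no effect and ±100 for the full control effect; compound concentration not given in the record; the text of the record puts the active cut at -80%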
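TRPML1-DL cells, Tet-induced overnight (~16 h, 37 °C) at 1,500 cells/well, were loaded with Ca8 no-wash dye plus quencher for 45-90 min at room temperature. Compounds were pinned during FDSS kinetic reading; agonist 54-4 at EC80 (4 uM final) then added.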
gsp antagonist: gsp mutant antagonism; AID 624288; 340,000 tested, 0.4% active; Potency, µM (highest dose often 76.9 µM), inactives show top-dose activity change, negative = inhibition, hits mostly inhibitors; gsp-mutant cells, cAMP HTRF, 30 min; control for the full effect not named in the record; active = falling curve of any shape with a large fitted effect; inconclusive = falling curve, mostly with a smaller effect; inactive = flat or rising curve; cell line not stated here;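 note: intracellular cAMP measured with PDE inhibitor Ro 20-1724 present during compound exposure; potency is the fitted concentration of half-maximal effect; % is set by controls: 0 for no effect and ±100 for the full control effect; nearly all actives have a fitted effect of over 65% in size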
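HTRF cAMP read-out (cAMP-d2 plus anti-cAMP antibody-K in lysis buffer, 30 min RT). Before lysis, cells are exposed to compounds with […] for 30 min at 37C in DPBS containing Ca/Mg, BSA and Tween 20.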
Numbers without * were called inactive; u = inconclusive; x = no result given; & = joins results of further samples; [ ] = another dose, or the depositor's remark.

SMILES | ClpP mod | TRPML1 ag | gsp ag | Menin MLL FP FL | TRPML1 blocker | gsp antagonist
COc1cccc(Oc2nc(N)ncc2[N+](=O)[O-])c1 | x | 0.0 | u | -1.8 | -10.6 | -0.6%
COc1cc(C(=O)Nc2ccc(OCC(=O)N3CCOCC3)cc2C)cc(OC)c1OC | x | 0.4 | u | -4.2 | -15.2 | 12.3%
COC(=O)CC1(c2ccc(OC)cc2)C(=O)c2ccccc2C1=O | x | 2.5 | 2.9%[15.4 µM] | -0.7 | 19.0 | -0.8%
Cc1nn(CC(=O)N2CCN(c3ccccn3)CC2)c(=O)c2cc3sccc3n12 | -4.5% | 2.9 | 1.3% | x | -3.5 | -10.9%
Cc1nn2c(=O)cc(COc3ccc(/C=C(\C#N)C(=O)Nc4ccccc4C)cc3)nc2s1 | -1.1% | -0.2 | x | x | 21.6 | x
Cc1noc(C)c1C(=O)Nc1nc2ccc(S(C)(=O)=O)cc2s1 | -6.1% | -0.1 | u | x | 19.8 | -6.4%
CCOC(=O)c1cc(CC)sc1NC(=O)COc1ccccc1C | -0.2% | 0.8 | x | x | 28.5 | x
CC(=O)N1CCc2cc(Br)cc(S(=O)(=O)N3CCC(C(=O)N(C)c4cc(C)ccc4C)CC3)c21 | -3.1% | 1.6 | x | x | 7.7 | x
O=C(Nc1cccc(C(=O)Nc2ccccc2F)c1)c1ccccc1 | x | -0.2 | -7.6% | 0.5 | 19.0 | -14.6%
CCN(CC(=O)Nc1ccc(OC)cc1)CC(=O)Nc1ccc(Br)cc1F | x | -0.4 | 5.4% | -0.4 | 29.3 | -7.0%
O=C(c1cc(Cl)nc2ccccc12)N1CCN(S(=O)(=O)c2cccc(F)c2)CC1 | -4.7% | 0.7 | 2.1% | x | 19.0 | -10.9%
O=C1CCCN1C(=O)COc1ccccc1[N+](=O)[O-] | x | 0.4 | -3.5%[15.4 µM] | x | 6.7 | 11.3%
Cc1cc(C)c(OCC(=O)OC(C)C(=O)NCc2ccccc2)c(C)c1 (stereo not drawn) | -1.5% | 1.5 | 14.4% | x | -9.1 | -1.9%
O=C(Nc1ccncc1)C1CCN(S(=O)(=O)c2c(Cl)cccc2Cl)CC1 | -0.9% | 0.3 | 3.7% | x | -2.7 | -1.2%
O=S(=O)(c1ccc(SCc2ccccc2)nc1)N1CCCCCC1 | 1.4% | 1.3 | -39.1%[inhibitor] | x | 7.2 | 6.2%
O=[N+]([O-])c1cc(S(=O)(=O)N2CCCC2)ccc1N/N=C/c1cccnc1 | 3.0% | -0.4 | -0.1% | 1.4 | 32.2 | -3.1%
Cc1cccc(NCc2ccc(N(C)C)cc2)n1 | x | -0.5 | -9.5% | 1.3 | -10.4 | -6.5%
Cc1ccc(Nc2c3c(nc4ccccc24)CCC3)cc1F | -15.2% | 2.8 | x | x | -1.3 | x
CCOC(=O)c1c(C2CC2)csc1NC(=O)COC(=O)c1ccc[n+]([O-])c1 | 20.7% | 3.0 | 11.6% | 0.5 | -5.6 | -16.5%
CN(C(=O)COC(=O)c1ccc(Br)o1)c1c(N)n(Cc2ccccc2)c(=O)[nH]c1=O | 22.0% | -0.4 | u | x | -1.9 | 12.4%
COc1cc(CCC(=O)OCC(=O)Nc2ccc(F)c(F)c2)cc(OC)c1OC | x | 2.4 | -5.7%[15.4 µM] | x | 4.0 | -5.3%
Cc1cc(C)c(COCc2cc(/C=N/O)c(C)cc2C)cc1/C=N/O | 0.0% | 0.7 | 0.7% | -0.7 | 10.7 | -14.3%
C/C(=N/OC(=O)c1ccccc1)c1oc(C)nc1C | -2.4% | 0.0 | 6.8%[15.4 µM] | 0.3 | 2.3 | 3.1%
Cc1nnc(NC(=O)C2CCCO2)s1 (stereo not drawn) | 0.6% | -0.2 | 0.1% | 0.9 | -4.4 | -1.1%
COc1ccc(-c2csc3ncnc(N4CCN(c5cccc(Cl)c5)CC4)c23)cc1 | -27.8% | -0.1 | 4.3% | x | 16.9 | -17.8%

One compound at a time (already shown). Screens in order: ClpP mod, TRPML1 ag, gsp ag, Menin MLL FP FL, TRPML1 blocker, gsp antagonist
`O=S(=O)(c1ccc(SCc2ccccc2)nc1)N1CCCCCC1` across the screens: 1.4%, 1.3, -39.1%[inhibitor], x, 7.2, 6.2%
`CCN(CC(=O)Nc1ccc(OC)cc1)CC(=O)Nc1ccc(Br)cc1F` across the screens: x, -0.4, 5.4%, -0.4, 29.3, -7.0%
`CCOC(=O)c1cc(CC)sc1NC(=O)COc1ccccc1C` across the screens: -0.2%, 0.8, x, x, 28.5, x
`Cc1cc(C)c(OCC(=O)OC(C)C(=O)NCc2ccccc2)c(C)c1` (stereo not drawn) across the screens: -1.5%, 1.5, 14.4%, x, -9.1, -1.9%
`Cc1nn(CC(=O)N2CCN(c3ccccn3)CC2)c(=O)c2cc3sccc3n12` across the screens: -4.5%, 2.9, 1.3%, x, -3.5, -10.9%

The results go on:
SMILES | ClpP mod | TRPML1 ag | gsp ag | Menin MLL FP FL | TRPML1 blocker | gsp antagonist
COc1ccc(-c2c(C)oc3c(CN4CCCCC4C)c(O)ccc3c2=O)cc1OC (stereo not drawn) | 4.6% | -0.8 | -33.8%[inhibitor] | 0.4 | -4.3 | -7.4%
O=C(NNC(=O)C1CCCO1)c1ccc(F)cc1 (stereo not drawn) | 2.0% | -0.7 | -1.2%[15.4 µM] | 2.9 | -0.2 | 18.4%
O=[N+]([O-])c1ccc(S(=O)(=O)N2CCn3cccc3C2c2ccccc2F)cc1 (stereo not drawn) | 0.5% | 3.9 | x | x | 46.6 | x
CSc1nc(C)cc(OCC#N)n1 | -1.1% | -0.2 | -30.5% | 2.4 | -11.4 | 5.7%
Cc1ccc(NC(=O)CN2CCN(c3ccccc3F)CC2)cc1F | -0.1% | 0.3 | x | x | -9.5 | x
CCC(=O)Nc1cc(NC(=O)CSc2nnc(C(C)C)n2CC)ccc1C | -0.5% | -1.0 | 3.4% | -1.1 | 0.8 | 0.1%
COc1ccc(NC(=S)N(Cc2ccc(Cl)cc2)Cc2ccc(C(=O)O)cc2)cc1Cl | 0.9% | 0.5 | 2.7% | 3.7 | -8.8 | -28.8%
COc1cc(/C=C2\N=C3CCCCCN3C2=O)ccc1O | 1.5% | 1.5 | 1.7% | u | -8.4 | -11.6%
O=C1c2ccccc2-n2c1nc1ccccc1c2=O | -2.7% | x | x | 3.1&-4.1&-3.6 | x | 4.2%
COc1ccc(S(=O)(=O)NCCc2sc(C)nc2C)cc1F | 4.2% | 4.1 | x | x | -3.3 | x
OCC[C@@H]1C[C@H](O)[C@@H](O)[C@]2(CCCCO2)O1 | -4.5% | 0.5 | 7.5% | x | -16.4 | -8.1%
CCC(C)[C@H](NC(=O)N1CC(=O)Nc2ccccc21)C(=O)N[C@@H](C(=O)O)c1ccccc1 (stereo partly drawn) | -2.3% | 0.0 | -33.3% | x | 26.5 | 5.9%
COc1ccc(N2CC(C(=O)N[C@@H](C)C(=O)NCc3ccccc3OC)CC2=O)cc1 (stereo partly drawn) | 0.5% | -0.6 | -13.8% | x | 3.6 | -5.4%
CCC(CC)C(=O)Nc1cccc(C(=O)N2CCOCC2)c1 | -0.5% | 0.7 | -0.6% | 1.8 | -16.7 | 7.9%
O=C1CCC(C(=O)N2CCC(O)(c3ccccc3)CC2)CN1CCc1ccccc1 (stereo not drawn) | 1.7% | 1.2 | -42.0%[inhibitor] | x | 7.6 | 11.0%
CN(C)CCCNC(=O)CC(c1ccccc1)c1ccccc1O (stereo not drawn) | 2.4% | 0.1 | u | -5.7 | 10.3 | 7.9%
Cc1occc(=O)c1OC(=O)Nc1ccccc1 | 1.2% | -0.2 | -3.3% | 0.3 | -18.0 | 10.0%
CCCN(CCO)Cc1ccc(F)c(Br)c1 | -0.3% | 4.9 | 3.8% | 0.7 | -13.3 | -4.4%
N#CCSc1nnc(COc2ccccc2)n1-c1ccccc1 | -2.7% | 0.1 | -40.7%[inhibitor] | 2.2 | -9.4 | -11.0%
COC(=O)c1ccc(/C=C/C(=O)OCC(=O)NCc2cccs2)cc1 | 1.0% | -0.5 | -15.1%[15.4 µM] | x | -1.2 | 0.2%
c1ccc(-c2onc(-c3ccco3)c2-c2ccc3c(c2)OCO3)cc1 | u | 0.6&0.2 | x | -2.2 | 6.0 | u
O=C(Cc1nnc(NC(=O)c2ccccc2)s1)N/N=C/c1ccc(O)cc1 | -4.1% | 0.2 | -18.7% | 0.5 | 33.4 | 0.6%
CCc1ccc(N2CC(C(=O)Nc3ccc(S(=O)(=O)N4CCCCC4)cc3)CC2=O)cc1 (stereo not drawn) | -2.3% | 1.8 | -36.8%[inhibitor] | -10.1 | -12.0 | -0.2%
COc1ccc(OC)c(-n2c(SCC(=O)Nc3cccc(S(N)(=O)=O)c3)nc3ccccc3c2=O)c1 | x | 1.7 | -14.1%[15.4 µM] | 5.3 | -4.4 | 12.6%
Cc1cc(NC(=O)CSc2nc(-c3ccccc3C)nc3c2c(=O)n(C)c(=O)n3C)no1 | -0.4% | -1.0 | x | x | 1.9 | x

Other structures
SMILES | ClpP mod | TRPML1 ag | gsp ag | Menin MLL FP FL | TRPML1 blocker | gsp antagonist
CN(C(=O)C1CCCO1)c1nnc(-c2ccccn2)s1 (stereo not drawn) | x | 0.6 | -0.3% | 1.3 | 4.4 | 2.3%
COc1ccc(NS(=O)(=O)c2ccc(C)cc2)c([N+](=O)[O-])c1 | 0.3% | x | -10.1% | -0.2 | x | 6.3%
COc1cc(NC(=O)c2ccc3c(c2)OCO3)ccc1NC(=O)C(C)C | 1.4% | 0.1 | -21.9% | 1.5 | 3.3 | -0.1%
CC(=O)c1ccc(NC(=O)/C=C/c2ccc(C)o2)cc1 | -4.5% | -1.4 | x | x | -11.2 | x
O=C(COC(=O)[C@@H]1CC(O)CN1S(=O)(=O)c1ccc2c(c1)OCCO2)Nc1ccccc1F (stereo partly drawn) | 0.1% | -1.0 | -1.7%[15.4 µM] | 0.5 | 29.9 | 0.0%
COc1ccc(NC(=O)CN(c2ccc(OC)c(Cl)c2)S(=O)(=O)c2ccccc2)c(OC)c1 | -0.6% | 1.8 | 34.8% | 1.6 | -13.7 | -26.1%
O=C(OCc1ccc(Cl)c(Cl)c1)c1ccc[nH]1 | x | 0.2 | -44.8%[15.4 µM] | -3.1 | -5.0 | u
O=C(Nc1ccc(Br)cc1Cl)Nn1cnnc1 | 1.4% | 0.9 | 8.3% | 3.8 | -13.4 | 12.0%
